Bioassay records: PubChem, several laboratories
CBX7 inh = inhibitors of human CBX7 binding to H3K27me3 peptide; O95931; 66,000 tested, 1.1% active; AID 1224903; normalised signal (fraction of DMSO) (concentration not given with the values); AlphaScreen His6-CBX7 / biotin-H3K27me3 peptide binding; hits give low values; in the data active means normalised signal below about 0.5;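 further: 100 nL library stock added to about 20 µL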
Target sequence (O95931 whole entry, looked up): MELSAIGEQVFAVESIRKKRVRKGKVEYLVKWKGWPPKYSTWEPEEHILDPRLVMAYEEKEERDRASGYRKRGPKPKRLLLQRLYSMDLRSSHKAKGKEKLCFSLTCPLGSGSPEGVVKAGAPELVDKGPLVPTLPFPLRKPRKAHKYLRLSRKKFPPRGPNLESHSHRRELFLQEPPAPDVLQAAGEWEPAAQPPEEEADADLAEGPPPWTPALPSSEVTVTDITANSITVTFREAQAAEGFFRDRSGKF
CBX7 inh z-score = second read-out of CBX7 inh, no call of its own (marks repeat the call); z-score; measured here: z-score of CBX7 signal; some inactives read as strong as hits; reference of the scale not given here;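 same signal on another scale; lower means less binding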
* marks the source's active call; other numbers are inactive results; & = joins results of further samples. This is a subset; count on the stated rates, not on these rows.

The first two entries (preview)
Value order – CBX7 inh, CBX7 inh z-score
CCOc1ccc(OCC)c(NS(=O)(=O)c2ccc3c(c2)CCN3C(C)=O)c1
    1, 0.19
COc1cc(OC)c(NC(=O)Cn2nc(Cc3cccnc3)c3ccccc3c2=O)cc1Cl
    1.1, 0.97

The listing, from the first entry:
Value order – CBX7 inh, CBX7 inh z-score
CCOc1ccc(OCC)c(NS(=O)(=O)c2ccc3c(c2)CCN3C(C)=O)c1
    1, 0.19
COc1cc(OC)c(NC(=O)Cn2nc(Cc3cccnc3)c3ccccc3c2=O)cc1Cl
    1.1, 0.97
Cc1cccc(C)c1NC(=O)CSc1nnnn1-c1ccc(F)cc1F
    0.97, -0.8
CCc1nnc(NC(=O)CCCOc2cccc(C)c2)s1
    1.1, 0.1
CC(C)COc1ccc(C(=O)NCC2(c3ccccc3)CCCC2)cc1
    1.1, 0.88
O=C(Cn1c(SCc2ccccc2)nc2ccccc21)Nc1cccc2ccccc12
    1.1, 0.77
CCOC(=O)CNc1c(N(C)C2CCCCC2)c(=O)c1=O
    1.1, 0.93
COc1ccc(-c2nnc(Nc3ccccc3O)c3ccccc23)cc1
    0.87, -2.5
CC1CCN(S(=O)(=O)c2ccc3ncn(CC(=O)Nc4ccc(F)cc4)c(=O)c3c2)CC1
    1, 0.42
CCCCC(=O)Nc1c(-c2ccccc2)nc2cc(C)ccn12
    1, 0.53
Cc1sc2ncn(CC(=O)NCCCC(=O)N3CCCC3)c(=O)c2c1C
    0.92, -1.6
CC1(C)Nc2ccccc2N(CCC(=O)N2CCOCC2)C1=O
    1.1, 2.4
CC1(C)Cc2c(cnn2-c2ccc(Br)cc2)-c2nc3ccccc3nc21
    1.1, 0.27
COc1ccc(N(C)S(=O)(=O)c2ccc3c(c2)CCN3C(=O)C2CCC2)c(OC)c1
    1, 0.49
COc1ccc(NS(=O)(=O)c2ccc3c(c2)CCN3C(=O)C2CCC2)cc1OC
    0.77, -0.94
Cc1nc(Nc2nc3ccccc3s2)ncc1C(=O)Nc1ccc(F)cc1
    1.1, 0.11
CCn1c(C(=O)N2CCC(C(=O)NCCc3ccc(S(N)(=O)=O)cc3)CC2)cc2sccc21
    0.96, -0.18
O=C1CCc2cc(S(=O)(=O)NC(Cc3ccccc3)C(=O)Nc3ccc4c(c3)OCCO4)ccc2N1 (stereo not drawn)
    0.98, -0.15
O=C(Nc1ccc(F)cc1)c1cc2c(s1)-c1ccccc1OC2
    1.1, 2.2
CCN1C(=O)c2ccccc2S(=O)c2ccc(C(=O)NCCCN3CCCCCC3)cc21 (stereo not drawn)
    1, 0.032
CCOc1ccc(CCNC(=O)c2cn(CC)c3nc(C)ccc3c2=O)cc1OCC
    0.95, -1.5
O=C(NCCN1CCOCC1)c1cc2nc(-c3ccc(Br)cc3)cc(C(F)(F)F)n2n1
    0.95, -1.3
Cc1nn(CC(=O)Nc2cccc(C(F)(F)F)c2)c(=O)c2ccccc12
    0.93, -0.75
O=C(Nc1ccc(OC(F)(F)F)cc1)c1cnn2c1NC(c1ccco1)CC2C(F)(F)F (stereo not drawn)
    1.1, 0.71
Cc1nc2c(C(=O)N(C)CCC#N)c[nH]n2c(=O)c1Cc1ccc(F)cc1
    0.98, -0.2
CCN1C(=O)c2ccccc2S(=O)(=O)c2ccc(C(=O)N3CCCC3)cc21
    0.97, -0.82
CCCNC(=O)CCc1c(C)nc2cc(-c3ccc(Cl)cc3)nn2c1C
    1.1, 2.3
COc1ccc(CNC(=O)c2ccc3nc(-c4cccs4)c(-c4cccs4)nc3c2)cc1
    1, 0.048
Cc1oc(-c2cccc(Cl)c2)nc1CN1CCC(C(=O)NCCN(C)C)CC1
    1.1, 0.15
CCc1ccc(-c2nc(CSCC(=O)N3CCN(c4cccc(C)c4C)CC3)c(C)o2)cc1
    0.91, -1.5

Sorted by value in CBX7 inh z-score (descending): four of the compounds above.
molecule | CBX7 inh z-score
CCN1C(=O)c2ccccc2S(=O)c2ccc(C(=O)NCCCN3CCCCCC3)cc21 (stereo not drawn) | 0.032
O=C1CCc2cc(S(=O)(=O)NC(Cc3ccccc3)C(=O)Nc3ccc4c(c3)OCCO4)ccc2N1 (stereo not drawn) | -0.15
Cc1nn(CC(=O)Nc2cccc(C(F)(F)F)c2)c(=O)c2ccccc12 | -0.75
CCN1C(=O)c2ccccc2S(=O)(=O)c2ccc(C(=O)N3CCCC3)cc21 | -0.82

Some of these compounds in order of heavy-atom count, high to low.
Value order – CBX7 inh, CBX7 inh z-score
CCc1ccc(-c2nc(CSCC(=O)N3CCN(c4cccc(C)c4C)CC3)c(C)o2)cc1
    0.91, -1.5
COc1ccc(CNC(=O)c2ccc3nc(-c4cccs4)c(-c4cccs4)nc3c2)cc1
    1, 0.048
CCOc1ccc(CCNC(=O)c2cn(CC)c3nc(C)ccc3c2=O)cc1OCC
    0.95, -1.5

Following part:
Value order – CBX7 inh, CBX7 inh z-score
CCC(=O)Oc1ccc(C(=O)Nc2ccc(-c3nc4ccccc4[nH]3)cc2)cc1
    0.51, -17
Cc1ccccc1CS(=O)(=O)CC1Nc2ccc(C(=O)O)cc2NC1=O (stereo not drawn)
    1, 0.58
COCCCNC(=O)Cn1cnc2sc(C)c(S(=O)(=O)N3CCCCC3)c2c1=O
    1.2, 1.5
COc1ccc(C2NC(C(=O)O)Cc3c2[nH]c2ccccc32)cc1CN1CCN(c2ccc(F)cc2)CC1 (stereo not drawn)
    0.91, -2.3
COCCNC(=O)C1CC(=O)N(c2ccc(F)c(Cl)c2)C1 (stereo not drawn)
    1, 1.9
CCCCN(CC)S(=O)(=O)c1ccc2[nH]c(=O)cc(C(=O)NC3CCCCCCC3)c2c1
    1, -0.026
CC1CCN(c2nc3ccc(C(=O)NCCCN4CCCC4)cc3s2)CC1
    1.6, 6.1
Cc1cccc(-c2noc(-c3c(-c4ccccc4Cl)noc3C)n2)c1
    1.2, 2.7
O=C(Cn1ccc2ccccc2c1=O)NCCC(=O)N1CCCCCC1
    1, -0.11
COc1ccccc1CNC(=O)Cn1cnc2ccc(S(=O)(=O)N3CCC(C)CC3)cc2c1=O
    1, 0.49
O=C(Cn1cc2c(n1)CCCC2)NCc1ccccn1
    0.98, -0.5
Cc1c(C(=O)O)cnc2cc(-c3ccccc3)nn12
    1, 1.2
C#CCN1C(=O)C(O)(CC(C)=O)c2ccccc21 (stereo not drawn)
    1.1, 2
Cc1oc(-c2ccc(Cl)cc2)nc1CN1CCC(C(=O)NCCN(C)CCc2ccccc2)CC1
    2, 8.8
CCC(C)(C(=O)NC1CCCCC1)N(C(=O)C1CCC(=O)N1)c1ccc(C)cc1 (stereo not drawn)
    1.2, 2.2
CC1CC(C)CN(CCCNS(=O)(=O)c2cc(Br)cc3c2N(C(=O)C2CC2)CC3)C1 (stereo not drawn)
    0.98, -0.93
O=C(O)c1ccc(NC(=O)c2cccc(S(=O)(=O)N3CCOCC3)c2)cc1
    1, 0.0063
O=C(CSc1nccn1-c1ccccc1)Nc1ccc(OC(F)(F)F)cc1
    0.68, -6.9
Cc1ccc2n1CCn1cc(-c3ccc(Br)cc3)cc1-2
    1, -0.016
CCOc1ccccc1OCCCCCCc1c(C)n[nH]c1C
    1.1, 1.4
CCc1nnc(NC(=O)c2ccc(-c3cccc(Cl)c3)o2)s1
    1, 2.2
Cc1ccc(N2C(=O)c3ccccc3C2C(=O)NC2CCCC2)cc1Cl (stereo not drawn)
    1, 0.53
CCN(CCNC(=O)C1CC(=O)N(CCc2ccccc2)C1)c1ccccc1 (stereo not drawn)
    0.99, -0.28
O=C1CC(N2CCC(O)(c3ccc(Br)cc3)CC2)C(=O)N1c1ccc(Cl)cc1 (stereo not drawn)
    1, 0.98
Cc1ccc(NC(=O)C2CCCN(C(=O)c3cnn(-c4ccccc4)c3-n3cccc3)C2)c(Cl)c1 (stereo not drawn)
    0.97, -1.5
COc1ccc(OC)c(NC(=O)c2c(NCc3ccc(N(C)C)cc3)sc3c2CCCC3)c1
    0.48*, -27*
O=C(Nc1c(-c2ccccc2)nc2ccccn12)c1ccc2ccccc2c1
    1, 0.0068
CCOC(=O)C1CCN(C(=O)CSCc2nc(-c3ccc(OCC)cc3)oc2C)CC1
    0.8, -2.7
CCc1ccc(NC(=O)c2cn(CC)c(=O)c3cc(OC)c(OC)cc23)cc1
    0.9, -2.6
CCCCOc1ccc(C(=O)N2CC(=O)Nc3ccc(C)cc3C2c2ccc(F)cc2)cc1 (stereo not drawn)
    0.8, -4.1
COc1ccc(C(=O)Nc2ccc3nc(N4CCCCC4)cc(C)c3c2)c(OC)c1
    1.2, 2
CN(C)CCNc1oc(COc2ccc(F)cc2)nc1C#N
    1, 0.1
FC(F)(F)c1cc(-c2ccc(Cl)cc2)nc(-n2cccn2)n1
    1.2, 2.8
CN1CCN(CCCNC(=O)Cn2nc(Cc3cccnc3)c3ccccc3c2=O)CC1
    1, 0.0016
COc1ccc(C2CC(=O)N(CC(=O)Nc3ccc(C)cc3C)c3ccccc3S2)cc1OC (stereo not drawn)
    0.96, -0.56
Cc1cc(NC(=O)C(=O)NCc2cccnc2)ccc1Br
    0.98, -0.8
Cc1cccc(OCc2nc(C#N)c(NCCN(C)C)o2)c1
    1, 0.091
COc1ccccc1C1(C)CCc2oc3ccccc3c2-c2oc(C)cc21 (stereo not drawn)
    0.98, -0.39
Cc1sc(NC(=O)c2ccncc2)nc1-c1ccc(Cl)cc1
    0.83&0.87, -1.9&-2.2
CC(C)CN(CC(C)C)C(=O)c1ccc2c(c1)NC(=O)c1ccccc1S2
    0.89, -0.84
COc1ccc(C(=O)Nc2cccc(-c3nc4cc(C)cc(C)c4o3)c2)cc1Cl
    1.1, 1
O=C(NC1CCCC1)C1CCN(C(=O)c2cc3sccc3n2Cc2ccc(Cl)cc2)CC1
    1, 1.1
Cc1ccccc1Cn1c(CN2CCN(c3cccc(Cl)c3)CC2)nc2c1c(=O)[nH]c(=O)n2C
    1, 0.041
Cc1ccc(-c2nc(CS(=O)(=O)CC(=O)Nc3cc(C)ccc3C)c(C)o2)cc1
    0.96, -0.093
COc1ccccc1NC(=O)C1c2ccccc2C(=O)N2CCc3ccccc3C12 (stereo not drawn)
    1, 0.0092
CCCCn1c(C(C)NC(=O)c2ccc(OC)c(OC)c2)nc2ccccc21 (stereo not drawn)
    0.99, -0.69
CCN(CC)S(=O)(=O)c1ccc(C(=O)Nc2ccccc2-c2nc3ccccc3s2)cc1
    1.1, 1.8
CCC1Oc2ccc(Cl)cc2N(CC(=O)NCCCN2CCOCC2)C1=O (stereo not drawn)
    1, 0.81
COCc1nnc(NS(=O)(=O)c2ccc(NC(C)=O)cc2)s1
    0.98, -0.18
CCC1=Nc2cc(C(=O)NCCc3ccc(OC)c(OC)c3)ccc2Sc2ccc(Cl)cc21
    0.9, -5
Cc1ccccc1NC(=O)C1CCCN1S(=O)(=O)c1cccc2cccnc12 (stereo not drawn)
    0.76, -8.2
CCOc1ccc(-n2ccnc2SCC(=O)Nc2cccc(OC)c2)cc1
    0.64, -0.48
Cc1c(CNCC(C)c2ccccc2)c(C(=O)O)c(C)n1Cc1ccccc1 (stereo not drawn)
    0.98, -0.6
O=C(CSc1nc(NCCc2ccccc2)c2ccccc2n1)NCC1CCCO1 (stereo not drawn)
    0.95, -0.14
O=C(Nc1nnc(CCc2ccccc2)s1)c1cccc(Br)c1
    1.1, 1.1
CC1CCN(c2nc(-c3ccc(C(C)(C)C)cc3)nc3ccccc23)CC1
    1.1, 1.7
Cc1onc(-c2ccccc2)c1C(=O)NCCc1ccc(F)cc1
    1, 0.051
CC1CCN(c2nc3ccc(C(=O)NCCCSC4CCCCC4)cc3s2)CC1
    1.2, 2
CCCC(O)(CCN1CCOCC1)c1ccc(Br)cc1 (stereo not drawn)
    1&1, 0.35&2
CCOC(=O)C(C)Sc1nnc(Cc2cc(=O)[nH]c(=O)[nH]2)n1-c1cccc(C)c1 (stereo not drawn)
    1.2, 0.66

(list continues)
Value order – CBX7 inh, CBX7 inh z-score
CCCCN(CC)S(=O)(=O)c1ccc(C(=O)Nc2nnc(-c3ccc(Cl)s3)o2)cc1
    1, 0.69
COc1ccc(C2=NOC(C(=O)NCCc3ccccc3)C2)cc1OC (stereo not drawn)
    0.98, -0.58
CC1CCN(S(=O)(=O)c2cn(CC(=O)N3CCN(C)CC3)c(=O)c3ccccc23)CC1
    1.1, 1.6
Cc1cccc(-c2noc(COc3ccc(C(C)(C)C)cc3)n2)c1
    1.1, 0.25
CCCCN(C)C(=O)c1cn(-c2ccc(OCC)cc2)c(=O)c2cc(OC)c(OC)cc12
    1.1, 0.51
CCC1CCCCN1CCCNC(=O)CC1Oc2ccc(C)cc2NC1=O (stereo not drawn)
    1, 0.016
O=C(Cn1cnc2sc3c(c2c1=O)CCCC3)N1CCN(c2ccc(F)cc2)CC1
    1, 0.65
Cc1ccc(S(=O)(=O)Nc2ccc(-c3cn4ccccc4n3)cc2)c(C)c1
    0.94, -0.86
O=C(Cc1cn(Cc2cccc(Cl)c2)c2ccccc12)N1CCCCCC1
    1, 0.011
CCOC(=O)c1nc(Nc2ccc(C)c(Cl)c2)c2ccccc2n1
    1, 0.85
CCOC(=O)c1cnc2c(C)cc(Cl)cc2c1Nc1ccccc1CC
    1.2, 1
CCN(CC)C(=O)COc1ccc(-c2nnc(N3CCCCC3)c3ccccc23)cc1
    1.1, 0.57
Cc1ccccc1Nc1c(-c2ccc(O)cc2)nc2sccn12
    0.9, -3.9
CC1(C(=O)O)NC(c2ccccc2O)C2C(=O)N(c3ccccc3)C(=O)C21 (stereo not drawn)
    0.99, -0.099
Cc1ccc2nc(Nc3nc(C)c(Cc4ccccc4)c(=O)[nH]3)nc(C)c2c1
    0.88, -1.4
O=C(Nc1c(-c2ccccc2)nc2ccccn12)c1cccc(C(F)(F)F)c1
    0.94, -1.6
COc1ccc(CCN2C(=O)CNCC2=O)cc1OC
    1, 0.33
